High-throughput results as filed in PubChem.
TRPML1 inh: human mucolipin-1 channel inhibition; TRPML1-inducible cells, Ca2+ dye fluorescence, FDSS; hits give low values; inhibition of EC80 agonist-evoked calcium signal; activity change, negative = inhibition, % (concentration not given with the values); Q9GZU1; 390,000 tested, 0.02% active; AID 624415; in the data active means activity change below about -50%; inconclusive means about -30% to -50%; inactive means above about -30%;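 also: stimulus is agonist 54-4 at its EC80 concentration; % is scaled to controls: 0 for no effect and ±100 for the full control effect; compound concentration not given in the record; the text of the record puts the active cut at -80%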
Target sequence (Q9GZU1 whole entry, looked up): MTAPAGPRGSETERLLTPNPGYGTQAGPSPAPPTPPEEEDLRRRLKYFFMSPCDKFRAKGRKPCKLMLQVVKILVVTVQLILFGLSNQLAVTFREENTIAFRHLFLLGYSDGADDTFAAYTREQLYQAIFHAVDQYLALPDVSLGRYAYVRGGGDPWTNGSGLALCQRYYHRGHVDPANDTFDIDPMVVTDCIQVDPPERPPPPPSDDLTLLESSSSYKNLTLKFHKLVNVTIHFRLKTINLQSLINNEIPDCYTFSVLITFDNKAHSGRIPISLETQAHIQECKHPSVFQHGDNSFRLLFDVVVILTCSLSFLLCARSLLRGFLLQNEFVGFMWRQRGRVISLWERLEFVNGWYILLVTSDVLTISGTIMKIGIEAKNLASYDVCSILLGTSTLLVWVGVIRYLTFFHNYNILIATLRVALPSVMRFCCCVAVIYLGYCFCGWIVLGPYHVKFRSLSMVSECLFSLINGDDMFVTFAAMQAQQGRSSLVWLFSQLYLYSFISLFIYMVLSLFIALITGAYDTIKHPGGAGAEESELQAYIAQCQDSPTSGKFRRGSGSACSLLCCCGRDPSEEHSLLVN
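Calcium fluorescence in TRPML1-DL cells induced overnight with Tet: a 110 s read after compound pin addition, then a 110 s antagonist read after challenge with 54-4 at 4 uM final (EC80).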
TRPML1 ag: agonists of human TRPML1 channel. Q9GZU1. TRPML1-expressing cells, Ca2+ dye fluorescence, FDSS; host cell line not named in the record; reference of the full effect not given here. activation, % (concentration not given with the values). 410,000 tested, 0.12% active. AID 624414; in the data active = activation above about 50%; inconclusive = about 30% to 50%; inactive = below about 30%; also: 0% is about no effect; the text of the record puts the active cut at 80%
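TRPML1-DL cells, Tet-induced overnight (~16 h, 37 degrees C), loaded 45-90 min at room temperature with Ca8 no-wash calcium dye plus quencher. FDSS fluorescence: 10 s baseline, compound pin-transfer, 110 s agonist read, then EC80 54-4 (4uM final) and 110 s antagonist read.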
TRPV1 potentiator: potentiators of human vanilloid receptor 1 (TRPV1) | potentiation, % at 8.33 µM | Q8NER1 | 320,000 tested, 0.02% active | TRPV1-expressing cells, Fluo-8 calcium influx, capsaicin EC20 potentiation; host cell line not named in the record; control for the full effect not named in the record; active means potentiation above 80%; inconclusive means 30% to 80%; inactive means below 30%; also: 0% is about no effect
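TRPV1-expressing cells were cultured overnight at 35.5C and loaded with Fluo-8 calcium dye for 40 to 90 min at room temperature. After a 10 s baseline, compound was added and calcium influx was read kinetically for 3 min (ex 480/em 520 nm).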
D2 potentiator: potentiates the human D2 dopamine receptor allosterically; DiscoveRx D2 beta-arrestin cells, luminescence, 90 min; 100% = 57 uM dopamine signal; 360,000 tested, 0.23% active; AID 624464; potentiation, % (concentration not given with the values); P14416; active = potentiation of 50% or more; inconclusive = 30% to 50%; inactive = 30% or less;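 also: compound concentration not given in the record; tested on top of an EC20 dose of dopamine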
Target sequence (P14416 whole entry, looked up): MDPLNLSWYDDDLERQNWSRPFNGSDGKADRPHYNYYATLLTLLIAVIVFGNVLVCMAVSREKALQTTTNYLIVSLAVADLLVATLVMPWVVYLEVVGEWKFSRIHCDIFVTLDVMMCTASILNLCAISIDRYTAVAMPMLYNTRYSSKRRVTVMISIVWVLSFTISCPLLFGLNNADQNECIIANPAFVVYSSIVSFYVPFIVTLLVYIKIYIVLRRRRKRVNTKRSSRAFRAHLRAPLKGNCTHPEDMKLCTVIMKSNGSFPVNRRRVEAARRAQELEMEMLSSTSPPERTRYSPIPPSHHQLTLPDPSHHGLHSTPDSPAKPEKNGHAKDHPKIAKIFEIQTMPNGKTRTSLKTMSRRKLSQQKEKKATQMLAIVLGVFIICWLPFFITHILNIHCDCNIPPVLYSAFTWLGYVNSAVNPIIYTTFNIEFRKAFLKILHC
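D2 cells co-treated with compound plus 50 nM dopamine (EC20) for 90 min at 37 deg C to detect potentiation. Beta-arrestin recruitment was read as enzyme-fragment luminescence after 1 h at ambient temperature. Full response was set by 57 uM dopamine.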
CtBP-E1A blk: inhibitors of CtBP/E1A interaction; AlphaScreen GST-E1A/His-CtBP binding, 1536-well; hits give low values; control for the full effect not named in the record; activity change, % (concentration not given with the values); 340,000 tested, 0.49% active; AID 651724; in the data active means activity change below about -65%; inconclusive means about -30% to -65%; inactive means above about -30%; also: % is scaled to controls: 0 for no effect and ±100 for the full control effect
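Homogeneous bead-based format: GST-tagged E1A captured on glutathione donor beads, His-tagged CtBP on nickel acceptor beads; compounds precede bead addition by 2 h at 37 °C.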
Six1-Eya2 blk: Six1/Eya2 interaction inhibition | 360,000 tested, 0.56% active | Q15475+O00167 | AlphaScreen GST-Six1/His-Eya2 binding, biochemical; hits give low values; control for the full effect not named in the record | AID 651725 | activity change, % (concentration not given with the values); in the data active = activity change below about -65%; inconclusive = about -30% to -65%; inactive = above about -30%; also: % is scaled to controls: 0 for no effect and ±100 for the full control effect
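Six1/Eya2 binding was read as AlphaScreen signal after compounds were pinned into GST-Six1 plus His-tagged Eya2 (5X stock 250/500 nM) in pH 8.0 Tris/NaCl/TCEP buffer, beads added, then incubated 1 h, 37 C, dark.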
Starred values were filed as active, the others as inactive; ? = inconclusive; nt = no result given; & = joins results of further samples.

compound,TRPML1 inh,TRPML1 ag,TRPV1 potentiator,D2 potentiator,CtBP-E1A blk,Six1-Eya2 blk
Cc1ccc(C(=O)NN2C(=O)CSC2=S)cc1,15,1.0,-3,-25,8,3
Cc1ccc(C)c(-c2nnc(NC(=O)C3=COCCO3)o2)c1,-9,-0.6,0,-2,-27,-29
O=P(OCC1CCCO1)(OCC1CCCO1)OCC1CCCO1 (stereo not given),-16,0.0,nt,-14,-4,8
Cc1c(NC(=O)C(C)OC(=O)/C=C/c2ccccc2)c(=O)n(-c2ccccc2)n1C (stereo not given),-10,2.2,1,3,-28,-6
CCOC(=O)C1(Cc2cccc(Cl)c2)CCCN(C(=O)c2cn[nH]c2)C1 (stereo not given),7,1.0,-7,-5,-21,5
Cn1cnnc1SCC(=O)NC1CCCN(Cc2ccccc2F)C1 (stereo not given),-7,-0.4,-3,-5,10,6
CN=C(Nc1ccc2c(c1)OCO2)SC1CC(=O)N(c2ccccc2)C1=O (stereo not given),4,-0.1,8,?,-5,0
COc1ccc(N(CC(=O)Nc2ccccc2C(=O)N2CCCC2)S(=O)(=O)c2ccccc2)cc1,1,0.2,-1,-10,0,23
COc1ccc(-c2csc(/C(C#N)=C/Nc3ccc4c(c3)OCCO4)n2)cc1,59,0.3,3,-11,nt,18
O=S(=O)(c1ccccc1)c1nc(-c2ccco2)oc1N1CCOCC1,9,-0.6,5,7,9,5
O=C(O)C1CC(=O)N(c2ccc3c(c2)OCCO3)C1 (stereo not given),-8,-0.4,-4,-4,11,-16
Cc1cc(/C=N/NC(=O)c2ccc(O)cc2)c(C)n1CC(C)C,nt,nt,-9,-16,-5,-22
Cc1nn(Cc2ccccc2Cl)c(C)c1NC(=O)/C=C/c1cnn(C)c1,2,-0.1,-3,-15,2,-1
NNC(=O)CSCc1nc(-c2ccc(Cl)cc2)cs1,1,2.2,-23,2,-3,-1
N#C/C(=C\c1cn[nH]c1-c1ccc(Cl)cc1)C(=O)NCc1ccccc1,4,0.9,2,-13,6,2
O=C1/C(=C2\C(=O)N(Cc3ccc(F)cc3)c3ccccc32)SC(=S)N1CCS(=O)(=O)O,4,2.4,25,8,nt,-16
Cc1[nH]c2ccccc2c1/C=N/NC(=O)c1cccc(Br)c1,1,1.2,0,-7,-10,-9
COc1cccc2cc(-c3ccccc3)oc12,9,2.9,nt,-17,15,18
CC(C)(C)c1ccc(NC(=O)COC(=O)C2=COCCO2)cc1,-1,-0.4,nt,21,2,2
COc1cc(NC(=S)NCCN2CCOCC2)cc(OC)c1,-3,-0.4,-2,-16,-4,-5
CN(C)C(=O)CSc1nnc(-c2cc(-c3cccs3)nc3ccccc23)o1,8,-0.4,-13,-6,-1,3
O=C1NC(=O)/C(=C\c2ccc(Br)o2)S1,17,0.2,13,-18,nt,1
CC(=O)Nc1ccc(NC(=O)c2sc3nc4n(c(=O)c3c2C)CCCCC4)cc1,-1,-0.1,8,-2,nt,-18
CCn1ncc(/C=C/C(=O)NCc2cnn(C)c2C)c1C,-9,2.7,6,-1,6,3
COCCn1c(SCC(=O)Nc2c(C)n(C)n(-c3ccccc3)c2=O)nnc1-c1ccncc1,-10,-0.9,1,-3,nt,-4
O=C(CSc1nnc(CNC(=O)c2ccccc2)o1)Nc1ccc2c(c1)OCCO2,-11,0.0,9,7,4,9
COc1ccc(S(=O)(=O)N(CC(=O)O)c2ccccc2)cc1,-13,-0.1,5,0,0,-4
CCOC(=O)N1CCN(C(=O)C2CCC(=O)N(CCCN3CCCC3=O)C2)CC1 (stereo not given),-3,-0.7,0,-8,4,4
COC(=O)c1cc(NC(=O)c2ccc(Cn3cc(Cl)cn3)o2)cc(C(=O)OC)c1,-6,0.8,-16,-30,2,0
Cc1cc(C(=O)C(=O)O)c(C)n1-c1ccc(Cl)c(Cl)c1,5,1.3,-15,-4,-9,-14
Cc1ccc(S(=O)(=O)N2CCCN(c3nc4cc(C)ccc4cc3C#N)CC2)cc1,59,0.3,10,-19,69,54
CC(=O)N1CC(C)c2scc(C)[n+]2-c2ccccc21 (stereo not given),-1,0.4,1,-9,-18,-6
COc1ccc(C(=O)/C=C/N(C)C)cc1OC,11,-0.8,12,6,4,0
Cc1nc(CN(C)C(=O)C2CCC(=O)N(CCc3cccc(F)c3)C2)cs1 (stereo not given),-20,-0.1,-2,2,11,-1
CC1(C(=O)Nc2cnc3ccccc3c2)CCN1Cc1ccc(OC(F)(F)F)cc1 (stereo not given),nt,0.4,nt,-6,6,1
Cc1[nH]c2ccccc2c1C(=O)CSc1nc2ncc(Cl)cc2[nH]1,12,0.0,4,-2,4,10
N#Cc1c(-c2cccs2)cc(C2CC2)nc1SCC(N)=O,10,0.3,7,12,3,0
CCOC(=O)C1=C(CS(=O)(=O)c2ccc(F)c(C)c2)NC(=O)NC1c1ccc(O)c(O)c1 (stereo not given),22,-0.6,26,-1,-2,2
CCOc1ccc(C(=O)OCC(=O)NC(C)C)cc1,-8,-0.2,8,-4,5,3
Cc1ccc(NC(=O)CSCC(=O)Nc2ccc(S(=O)(=O)N3CCOCC3)cc2)cc1,1,-0.6,15,-22,21,0
CC1CCN(C(=O)CCNS(=O)(=O)c2ccc(Cl)cc2)CC1,2,0.0,-17,-3,-1,-1
CCOc1ccc(C/C(N)=N/n2cnnc2)cc1,-5,0.1,2,0,6,3
CCn1c(SCC(=O)c2cc(C)n(-c3ccc(C(=O)OC)cc3)c2C)nnc1-c1cccnc1,2,-0.4,-1,12,-3,-9
O=C1c2ccccc2NC(c2cc(Cl)cc(Cl)c2O)N1Cc1cccnc1 (stereo not given),-8,-0.3,-2,5,-14,-25
COc1ccc(N(C(=O)c2ccc(Br)o2)C2C=CS(=O)(=O)C2)cc1 (stereo not given),0,0.0,-17,-4,3,3
O=C(Nc1ccccc1Cl)Nc1ccnn1C1CCN(C(=O)C2CCOC2)CC1 (stereo not given),0,-0.1,nt,-5,1,1
O=C(CCc1ccccc1F)N1CCN(c2ccccc2)CC1,11,-0.5,-37,0,7,-1
CC1CCN(C2=NC(=O)/C(=C/c3cn[nH]c3-c3ccccc3)S2)CC1,-3,0.7,-8,-13,-27,-14
C[C@H]1CCC[C@]2(O[C@H](CCO)C[C@@H](O)[C@@H]2O)O1,-11,-0.3,nt,-9,nt,2
CCCC(=O)c1cc(F)c(N2CCN(S(=O)(=O)c3ccccc3)CC2)cc1C,35,1.7,-24,-5,9,3
CCOC(=O)Cc1csc(NC(=O)c2cccs2)n1,4,0.8,3,5,1,-3
N#Cc1ccc(OCC(O)CN2CCN(CC(O)COc3ccc(C#N)cc3)CC2)cc1 (stereo not given),48,1.8,0,-20,30,10
CCCCc1c(O)nc(SCC(=O)N2CCOCC2)[nH]c1=O,-3,-0.8,14,17,3,-3
CCOCCCNC(=O)/C(C#N)=C/c1ccc(C(=O)OC)cc1,9,0.3,-4,-14,-8,3
O=C(O)c1ccc(CSCc2ccccc2Cl)o1,-8,2.2,-4,-4,nt,1
Cc1cc([N+](=O)[O-])nn1CC(=O)Nc1cnc2ccccc2c1,-5,-0.5,-10,-9,0,2
CCOC(=O)CNC(=O)/C(=C\c1ccc(F)cc1)NC(=O)c1ccccc1,0,1.1,-1,1,-23,3
Cc1ccccc1NC(=O)Cn1c(=O)n(Cc2ccccc2)c(=O)c2c(C)c(C)sc21,17&9,2.6&-0.5,1,-20,-1,0
Cc1cccc(NC(=O)N2CCC(C(=O)c3ccc(F)cc3)CC2)c1,-1,0.6,-7,-4,0,19
CC(=O)Nc1ccc2nc(NS(=O)(=O)c3ccc(C)cc3)sc2c1,-9,0.6,-14,-4,-5,-9

Random excerpt: two entries already listed.
compound,TRPML1 inh,TRPML1 ag,TRPV1 potentiator,D2 potentiator,CtBP-E1A blk,Six1-Eya2 blk
N#Cc1ccc(OCC(O)CN2CCN(CC(O)COc3ccc(C#N)cc3)CC2)cc1 (stereo not given),48,1.8,0,-20,30,10
CCOCCCNC(=O)/C(C#N)=C/c1ccc(C(=O)OC)cc1,9,0.3,-4,-14,-8,3

More entries.
compound,TRPML1 inh,TRPML1 ag,TRPV1 potentiator,D2 potentiator,CtBP-E1A blk,Six1-Eya2 blk
CCOC(=O)C(C)Sc1ccc2nnc(CCNS(=O)(=O)c3ccccc3)n2n1 (stereo not given),7&0,3.2&-0.6,-1,?,nt,5
CC(C)CC(=O)NC(=S)Nc1ccccc1C(=O)Nc1ccccc1,10,-0.5,5,-26,19,1
CC1CCN(S(=O)(=O)N2CCC(C(=O)NC3CCCC3)CC2)CC1,10,-0.4,-11,-2,-3,6
O=C(c1ccc(OC2CCN(Cc3ccccn3)CC2)cc1)N1CCCCCC1,-4,0.4,-1,-5,5,18
COc1ccc2cnn(-c3ccc(OC(F)(F)Cl)cc3)c(=O)c2c1OC,14,-0.4,0,-8,10,36
CC1=NN(c2ccccc2)C(=O)/C1=C/c1ccc(Cl)cc1,14,-0.7,-30,-9,nt,-7
CCOC(=O)CCCNC(=O)COc1ccccc1C#N,3,-0.8,1,1,6,-1
Cc1cccc(N2CN=c3s/c(=C\c4ccccn4)c(=O)n3C2)c1,31,0.8,5,-24,-3,-8
CC(=O)Nc1ccc(S(=O)(=O)N(C)Cc2cnn(C)c2)cc1,-4,-0.6,8,-3,7,-4
CC1CCN(c2nnc(-c3cccs3)c3ccccc23)CC1,52,-0.3,-9,-3,-10,-10
O=C(CCN1CCN(c2ccccc2)CC1)N/N=C/c1ccccc1OC(F)F,3,0.4,4,9,-16,?
COCCN(C(=O)COC(=O)c1c(NC(C)=O)sc(C)c1C)c1c(N)n(Cc2ccccc2)c(=O)[nH]c1=O,-12,-1.3,-4,14,0,2
O=C(O)CCC(=O)NCc1ccc2[nH]c3c(c2c1)CCCC3,0,0.1,2,-1,-1,-9
O=C(Nc1ccc2c(c1)OCCO2)c1cnc2ccccn2c1=O,-5,-0.4,nt,-8,11,5
CC(C)(C)NC(=O)Cn1cnc([N+](=O)[O-])n1,-3,-0.4,-3,-1,-4,3
Cc1ccc(S(=O)(=O)N2CCOCC2)cc1NC(=O)CSCc1c(C)noc1C,-8,0.3,11,0,1,1
O=C(NCc1cccs1)c1cc(-c2ccc(O)cc2)on1,1,2.8,12,-16,nt,-4
CCn1nccc1C(=O)Nc1ccc(C)c(C)c1,nt,nt,-31,-5,nt,-1
CC(C)CC(=O)N(Cc1ccc(F)cc1)C1CCS(=O)(=O)C1 (stereo not given),21,-0.8,2,-2,6,-1
Cc1cc(NC(=O)Nc2cc(C)nn2-c2ccccc2)n(-c2ccccc2)n1,22,-1.1,-1,21,-12,2
CCN(CC)CCCNc1cc(C)nc2cc(-c3cccs3)nn12,-5,-0.1,12,-4,-1,-1
